Source: PubChem BioAssay
MT1-MMP act inh: MT1-MMP (human) activation inhibition | HT1080 RFP-PRO-GFP cells, GFP/RFP ratio fluorescence, overnight; percent of plate control window, DMSO zero | P50281 | GFP/RFP ratio change, % at 20 µM | 360,000 compounds, 0.061% hits;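 active = GFP/RFP ratio change of at least 30% with cell ATP level not reduced by more than half and red fluorescence within 50% of control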; also: strong numbers were not always called active
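Test system: HT1080 cells expressing an RFP-PRO-GFP fluorescent reporter construct / Compound dosing: single-point 20 µM compound, 1% DMSO / Schedule: cells overnight before dosing, compound overnight, 37 °C, 5% CO2 / Evaluation: GFP/RFP fluorescence ratio / Control set: DMSO and RFP-L50D-GFP cell wells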
Env fusion inh: blocks HIV Env-driven cell-cell fusion. HeLa-JRFL Env/CEM21 cell fusion, luciferase. AID 651610. inhibition, % at 12.3 µM. 360,000 compounds, 1.1% hits;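 active = mean replicate inhibition score of at least 50 and every replicate individually at or above 50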;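 also: 0% = plate neutral controls and 100% = maraviroc near 300 nM; one replicate is shown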
Rce1 inhib: yeast Ras-converting enzyme inhibition | Q03530 | yeast membranes, quenched prenylated peptide cleavage fluorescence | calls only | 290,000 compounds, 0.27% hits;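 active = fall in fluorescence gain of 50% or more versus controls, with final raw signal at or below 3038400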;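 also: plate controls were neutral control wells for no effect and wells lacking membranes for full effect; tested at 10 µM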
eIF4H FP inh: inhibitors of RNA binding by human eIF4H; Q15056; eIF4H fluorescence polarization binding assay; inhibition, % at 35 µM; 290,000 compounds, 0.94% hits;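 active = 50% or more with normal probe brightness, or confirmed in later tests; about a fifth of its hits are not listed in these tables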;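 also: calls also rest on retests at 20 µM and on dose response follow-up; 0% = protein and probe with vehicle and 100% = probe without protein; strong numbers were not always called active; many hits fall short of the cut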
CSC inhib: cancer stem cell inhibition; cancer stem cell-like cells viability, luminescence; inhibition, % at 7.5 µM; 300,000 compounds, 1.1% hits;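 active = mean at 75% or more and at least half the replicates too; tested in HMLE shEcad cells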;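 also: 0% = median of negative and 100% = median of positive control wells; the first replicate is given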
PABP FP inh: blocks human PABP binding to poly(A) RNA. 290,000 compounds, 1% hits. fluorescence polarization. P11940. inhibition, % at 35 µM. AID 2014;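 active = 50% or more with normal probe brightness, or confirmed in later tests; about a fifth of its hits are not listed in these tables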;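 also: calls also rest on retests at 20 µM and on dose response follow-up; controls were probe without protein and protein plus probe with vehicle; some compounds called inactive have numbers as strong as hits; many hits fall short of the cut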
Target sequence (P11940 whole entry, looked up): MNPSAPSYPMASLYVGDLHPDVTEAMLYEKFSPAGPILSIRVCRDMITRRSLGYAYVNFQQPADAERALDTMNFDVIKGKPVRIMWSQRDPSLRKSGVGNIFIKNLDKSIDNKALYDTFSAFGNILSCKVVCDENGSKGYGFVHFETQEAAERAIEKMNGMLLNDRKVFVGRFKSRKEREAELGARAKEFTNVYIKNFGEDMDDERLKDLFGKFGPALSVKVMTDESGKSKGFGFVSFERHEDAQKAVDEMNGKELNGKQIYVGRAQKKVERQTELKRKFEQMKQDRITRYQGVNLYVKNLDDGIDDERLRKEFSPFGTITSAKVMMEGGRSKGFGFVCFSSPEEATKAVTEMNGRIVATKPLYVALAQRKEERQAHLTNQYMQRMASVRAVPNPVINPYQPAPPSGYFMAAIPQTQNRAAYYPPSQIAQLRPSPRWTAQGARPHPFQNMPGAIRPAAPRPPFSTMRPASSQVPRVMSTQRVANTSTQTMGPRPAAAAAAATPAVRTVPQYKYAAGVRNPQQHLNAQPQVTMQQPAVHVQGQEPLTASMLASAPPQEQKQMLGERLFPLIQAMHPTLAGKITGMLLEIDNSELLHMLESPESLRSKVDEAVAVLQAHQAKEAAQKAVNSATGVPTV
Yeast UUG start: modulators of start codon recognition fidelity in yeast. AID 602363. activity score, % at 18.7 µM. 350,000 compounds, 0.13% hits. S. cerevisiae UUG-firefly luciferase reporter, luminescence/redox ratio;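 active = replicate mean at a twofold rise or more, about +100% in these data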;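 also: firefly luciferase made from a UUG start codon reports start codon fidelity; reporter light over untreated wells divided by growth signal over untreated wells; some hits fall short of that in this replicate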
eIF4H FP inh retest: second read-out of eIF4H FP inh, no call of its own (marks repeat the call); inhibition, %; compound at 20 µM; confirmation average;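 mean of two retest wells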
PABP FP inh retest: second read-out of PABP FP inh, no call of its own (marks repeat the call); inhibition, %; compound at 20 µM; confirmation repeats;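 mean of two retest wells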
MT1-MMP act inh RFP: second read-out of MT1-MMP act inh, no call of its own (marks repeat the call); RFP signal change, %; measured here: RFP expression control read;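 0 = vehicle wells; hits needed this value within 50% of zero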
Starred values were filed as active, the others as inactive; i = inactive; . = no result given.

SMILES	MT1-MMP act inh	MT1-MMP act inh RFP	Env fusion inh	Rce1 inhib	eIF4H FP inh	CSC inhib	PABP FP inh	Yeast UUG start	others
COC(=O)C1=C(C)N(Cc2ccccc2)C(=S)N[C@H]1c1cccc(C(F)(F)F)c1	-2	-17	10	.	.	43	.	-29
O=C(CCN1C(=O)C2CCCCC2C1=O)N1CCN(S(=O)(=O)c2cccc(F)c2)CC1 (configuration not stated)	0	1	35	i	.	-9	.	4
CC(CC(=O)Nc1ccc(-c2ccno2)cc1)n1cccn1 (configuration not stated)	-2	1	5	i	-9	1	-10	-5
Nc1nc2c(nc(SCc3ccccc3Br)n2[C@@H]2O[C@H](CO)[C@@H](O)[C@H]2O)c(=O)[nH]1	-4	3	-2	i	0	-9	-6	-17
O=C(c1ccccc1F)N1CCCc2ccccc21	2	0	-3	i	-3	7	3	-9
CC(C)[n+]1ccn(C2=C([O-])c3ccccc3C(=O)/C2=N\S(=O)(=O)c2ccccc2)c1	1	3	17	i	-19	4	-2	.
C/C(=N\NC(=O)c1cccnc1)c1ccccc1	0	1	17	i	-7	12	-1	-18
CC1(C)CC(=O)C=C(C(=O)N2CCCC(C(=O)c3cccc(Cl)c3)C2)O1 (configuration not stated)	0	1	1	i	-3	-16	-5	5
O=C(Nc1ccccc1)c1ccsc1	2	2	-2	i	0	-2	-14	.
CCNc1nc(NCC)nc(N(C)/N=C/c2ccco2)n1	-1	2	-8	i	-8	-1	-1	-12
CC1CCN(Cc2c(C(=O)O)nnn2-c2nonc2N)CC1	-1	1	1	i	3	-20	16	.
S=C(NCCN1CCCCC1)Nc1ccc(Br)cc1	5	8	3	i	7	0	12	-14
CN1CCN(c2nc3c(c(=O)[nH]c(=O)n3C)n2CCSc2nc3ccccc3s2)CC1	-2	3	1	i	2	-1	-6	4
COCCNC(=O)C(C)N(c1ccc(Oc2ccccc2)cc1)S(C)(=O)=O (configuration not stated)	1	1	.	i	0	.	-2	-11
COc1ccc(C2C=C(c3ccc(Br)cc3)Nc3nc(N4C(=O)CCC4=O)nn32)cc1 (configuration not stated)	-178	-1	-89	i	26	8	52	-2	eIF4H FP inh retest=20;PABP FP inh retest=27
O=C(NNC(=S)Nc1ccc(Cl)c(Cl)c1)c1cccc([N+](=O)[O-])c1	1	3	-14	i	8	19	-4	-34
CCCSc1ccc([C@@H]2[C@H]3C(=O)N(CC)C(=O)[C@H]3[C@]3(C(=O)OC)CCCCN23)cc1	-9	-2	29	i	.	11	.	-2
COc1ccc(S(=O)(=O)N(C)C)cc1NC(=O)Cc1c[nH]c2ccccc12	-8	-5	-8	i	-4	-12	-3	.
N#CC(c1ccc(Cl)cc1)c1ccc(Cl)nn1 (configuration not stated)	4	-6	.	i	-5	-1	-4	-11
OCCN1CCN(c2cc(-c3ccc4ccccc4c3)nc3ccnn23)CC1	-1	-2	14	.	.	.	.	-19
CCOC(=O)C1=C(C)N(C)C(C)=C(C(=O)OCC)C1c1cccnc1	-4	4	.	i	-9	15	13	-5
CCOc1ccc2nc(SCCNS(=O)(=O)c3ccccc3)sc2c1	-6	-8	.	i	-1	29	69	.	eIF4H FP inh retest=-15;PABP FP inh retest=3
CC1=C(C(=O)N(C)C)CC(CC(=O)NCCCN(C)C)C(=O)N1Cc1ccccc1 (configuration not stated)	-1	4	-11	.	.	.	.	-4
CCCC(=O)Nc1ccc(NC(=O)C2CC2)cn1	6	-2	.	i	3	-12	13	-20
Cc1ccccc1S(=O)(=O)c1cc2ccccc2nc1N	-3	-6	30	i	-3	-7	-7	-17
New compounds follow
SMILES	MT1-MMP act inh	MT1-MMP act inh RFP	Env fusion inh	Rce1 inhib	eIF4H FP inh	CSC inhib	PABP FP inh	Yeast UUG start	others
O=C(CCNS(=O)(=O)c1ccc(Br)cc1)NC1CCN(Cc2ccccc2)CC1	0	-6	.	i	11	.	8	-24
Cc1nn(-c2ccc(F)cc2)c(Cl)c1/C=C/C(=O)OCC(=O)Nc1c(F)c(F)c(F)c(F)c1F	1	3	10	.	2	47	-9	.
COc1ccc(OC)c(C2=NO[C@@H]3C(=O)N(c4cc(Cl)ccc4OC)C(=O)[C@H]23)c1	-1	1	-50	i	-4	-5	4	-8
O=C(Nc1nnc(C2CC2)s1)C1Cc2ccccc2CN1S(=O)(=O)c1cccs1 (configuration not stated)	-3	-2	.	i	26	8	5	-33
O=C(OCC(=O)c1ccc[nH]1)c1ccccc1	3	3	0	i	14	-6	-14	.
O=C(Cn1c(=O)oc2ccccc21)Nc1ccc2c(c1)OCCO2	-5	3	18	i	0	-10	-6	-17
O=c1c2ccccc2c2ccccc2c(=O)n1CC1CCCO1 (configuration not stated)	0	1	.	i	11	-8	-3	2
COCCNC(=S)NN=C1CCC(c2ccccc2)CC1 (configuration not stated)	2	0	-14	i	-3	-10	7	-8
CCOC(=O)C(=O)c1csc(NC(=O)CCSc2ccc(C)cc2)n1	-1	2	23	i	12	-3	-12	.
Cc1sc(NC(=O)CCS(=O)(=O)c2ccccc2)c(C#N)c1C	1	-1	4	i	.	12	.	-8
CC1CCCN(c2ccc(C(=O)Nc3cccnc3)cc2[N+](=O)[O-])C1 (configuration not stated)	0	-7	-31	i	-7	13	-3	-14
O=C(CCS(=O)(=O)c1ccc(Br)cc1)NCCC1=CCCCC1	2	8	9	i	64*	-3	16	-4	eIF4H FP inh retest=79*;PABP FP inh retest=20
O=C(Cc1ccccc1F)Nc1cccc(S(=O)(=O)N2CCCCC2)c1	2	-2	5	.	.	.	.	-5
COc1cccc(CNC(=O)c2ccc(CS(=O)(=O)Cc3ccc(C)cc3)o2)c1	0	2	3	i	-8	-2	1	-19
Cc1cccc(N2CCN(C(=O)CN3C(=O)NC(C)(C4CC4)C3=O)CC2)c1C (configuration not stated)	-3	-3	-14	.	.	.	.	-13
CCOC(=O)C1CCN(Cc2ccccn2)CC1	.	.	.	i	2	-2	11	.
CCOCCn1c(CN(Cc2ccccc2)Cc2ccccc2)nc2c1c(=O)n(C)c(=O)n2C	-16	-4	18	i	-8	18	-11	-7
COc1ccc(CNC(=O)CN2C(=O)NC(c3ccccc3)(c3ccccc3)C2=O)cc1OC	2	-3	-1	.	.	.	.	-13
Cc1ccc(C)c(CSc2nnc([C@@H]3CCCN3)o2)c1	0	4	-2	i	-8	.	-7	-1
CN(c1ccccc1)S(=O)(=O)c1cccc(NC(=O)COC(=O)C2CCCCC2)c1	-1	4	5	i	-16	-16	3	-7
O=C(CCn1cnc2ncccc2c1=O)N1CCN(c2cccc(Cl)c2)CC1	4	1	-9	i	-7	-10	12	.
CCc1ccc(/C(C)=N/NC(=O)CNC(=O)/C=C/c2ccccc2OC)cc1	0	1	17	i	-8	-8	4	-21
O=C(NCc1ccc(F)cc1)C(c1ccccc1)c1ccccc1	-5	-6	12	i	6	14	3	-7
O=C(Cc1ccc(NC(=O)C2CCCN(C(=O)C3CCCC3)C2)cc1)Nc1cccc(C(=O)N2CCCCC2)c1 (configuration not stated)	0	-1	23	.	.	.	.	-6
O=C(Oc1cccc2c(O)cccc12)c1ccco1	4	-2	-10	.	.	.	.	-20

The closing four compounds of the part before lead into the next:
SMILES	MT1-MMP act inh	MT1-MMP act inh RFP	Env fusion inh	Rce1 inhib	eIF4H FP inh	CSC inhib	PABP FP inh	Yeast UUG start	others
CCc1ccc(/C(C)=N/NC(=O)CNC(=O)/C=C/c2ccccc2OC)cc1	0	1	17	i	-8	-8	4	-21
O=C(NCc1ccc(F)cc1)C(c1ccccc1)c1ccccc1	-5	-6	12	i	6	14	3	-7
O=C(Cc1ccc(NC(=O)C2CCCN(C(=O)C3CCCC3)C2)cc1)Nc1cccc(C(=O)N2CCCCC2)c1 (configuration not stated)	0	-1	23	.	.	.	.	-6
O=C(Oc1cccc2c(O)cccc12)c1ccco1	4	-2	-10	.	.	.	.	-20
COc1ccc(S(=O)(=O)N(CC(=O)N2CCN(C)CC2)c2ccccc2)cc1OC	5	7	.	i	7	.	7	11
CCOC(=O)N(C)c1c(CC)nc2c(OCc3ccc(Cl)cc3)cccn12	-10	-7	-3	.	.	.	.	-14
COc1ccc(C(C(=O)NCC2CCCO2)N(C(=O)CNC(=O)c2cccs2)c2ccc(C)cc2)cc1OC (configuration not stated)	2	6	-8	i	-2	4	-4	23
O=C(CN1CCOCC1)N1CCc2ccccc2C(c2ccccc2)C1 (configuration not stated)	0	1	.	i	-4	-30	4	.
CCCN(C(=O)c1cn(-c2ccccc2)nc1-c1ccc(OC)cc1)C1CCS(=O)(=O)C1 (configuration not stated)	-1	-1	-44	i	.	8	.	10
CCCOc1ccc(C2C(C(=O)c3ccc(C)o3)=C(O)C(=O)N2Cc2cccnc2)cc1 (configuration not stated)	.	.	.	i	-6	5	19	.
Cc1ccc(C)c(Nc2nc3ccccc3n3cnnc23)c1	0	-2	2	i	0	7	-3	.
CC1CCN(C(=O)c2[nH]cnc2C(=O)N(C)Cc2ccccc2)CC1	2	5	10	.	.	-16	.	0
CCCCn1c(O)c(N=Nc2ccccc2O)c2ccccc21	-76	10	-3	.	.	71	.	-12
C=CCN(c1ccccc1Cl)S(=O)(=O)c1cccc(C(=O)NCCc2ccc(OC)cc2)c1	-3	-13	-10	i	6	-2	-10	7
COCCCNC(=O)c1ccccc1N(Cc1ccccc1)S(=O)(=O)c1ccc(OC)cc1	-5	-3	-1	i	15	5	5	-2
Cc1ccc(P(=O)(CC(=O)O)c2ccc(C)cc2)cc1	-6	1	1	i	5	-6	1	-15
COc1ccccc1OCCSc1nnnn1-c1ccc(C)cc1	-1	-1	-16	i	-9	-2	-5	-35
COc1ccccc1C(=O)NCCC(=O)NCCOc1ccc(C)cc1	-2	1	-13	.	.	.	.	7
COc1ccc(/C=N/NC(=O)CO/N=C(\C)c2cccs2)cc1	3	2	.	i	2	-3	-1	-19
O=C1CSC(=Nc2cccc(Cl)c2Cl)N1Cc1cccnc1	-2	-4	27	i	0	14	8	.
COC(=O)[C@@]1(Cc2ccc(OC)cc2)[C@H]2c3cc(C(=O)N(C)C)n(Cc4c(CO)[nH]cc(C)c4=O)c3C[C@H]2CN1C(=O)c1ccccc1	-1	-1	-16	i	.	0	.	-15
O=C(CN1C(=O)NC2(CCCCCCC2)C1=O)NCc1ccc(F)cc1	1	0	.	.	.	-11	.	2
COc1ccc(Cl)cc1NC(=O)Nc1ccc(C(=O)N2CCOCC2)cc1	-1	-3	.	i	-5	-10	8	-6
Cc1c(NC(=O)C2CCN(S(=O)(=O)c3ccc(Cl)cc3)CC2)c(=O)n(-c2ccccc2)n1C	10	1	-8	i	5	-19	-2	-6
Cc1ccc(CNC(=O)c2nn(C)c(C)c2[N+](=O)[O-])cc1	-2	1	-11	i	-7	6	-2	.
CCOc1ccc(S(=O)(=O)Nc2ccc(C(=O)NCC(c3ccc(OC)cc3)N3CCOCC3)cc2)cc1 (configuration not stated)	1	-5	.	.	.	14	.	-15

Of the compounds above, three have a nitro group on carbon:
SMILES	MT1-MMP act inh	MT1-MMP act inh RFP	Env fusion inh	Rce1 inhib	eIF4H FP inh	CSC inhib	PABP FP inh	Yeast UUG start	others
O=C(NNC(=S)Nc1ccc(Cl)c(Cl)c1)c1cccc([N+](=O)[O-])c1	1	3	-14	i	8	19	-4	-34
CC1CCCN(c2ccc(C(=O)Nc3cccnc3)cc2[N+](=O)[O-])C1 (configuration not stated)	0	-7	-31	i	-7	13	-3	-14
Cc1ccc(CNC(=O)c2nn(C)c(C)c2[N+](=O)[O-])cc1	-2	1	-11	i	-7	6	-2	.

Some of the compounds tested (hit frequency here may not be typical).
